VDR inh: vitamin D3 receptor (human) inhibition; AID 504847; P11473; Potency, µM, inactives show max response, negative = inhibition, usual class: inhibitors; VDR-SRC2-3 peptide fluorescence polarization, 2 h; 400,000 compounds, 0.93% hits; active means well fitted inhibition curve with a large enough effect; inconclusive means small, poorly fitted or top-dose-only effect, or another doubt; inactive means no such curve, though single readings can be large or run the other way; further: series mostly up to about 120 µM
Target sequence (P11473 whole entry, looked up): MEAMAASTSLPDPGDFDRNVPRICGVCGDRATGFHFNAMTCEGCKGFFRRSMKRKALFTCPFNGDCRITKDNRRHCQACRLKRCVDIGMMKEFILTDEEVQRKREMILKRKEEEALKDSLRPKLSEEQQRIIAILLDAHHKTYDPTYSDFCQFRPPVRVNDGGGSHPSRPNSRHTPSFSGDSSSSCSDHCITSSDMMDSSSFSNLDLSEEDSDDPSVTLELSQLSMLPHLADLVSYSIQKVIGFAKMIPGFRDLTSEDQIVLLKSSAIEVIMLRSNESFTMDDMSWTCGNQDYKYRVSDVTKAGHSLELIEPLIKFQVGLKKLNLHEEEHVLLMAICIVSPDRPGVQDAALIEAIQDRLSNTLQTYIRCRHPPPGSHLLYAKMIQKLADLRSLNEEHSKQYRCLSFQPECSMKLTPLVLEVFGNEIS
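After 23 nl compound addition and a short centrifugation, plates sat for 2 hours at ambient temperature; polarization of fluorescence then indicated loss of VDR binding to peptide SRC2-3.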
* = called active by the depositor; ? = inconclusive; & = joins results of further samples. On the % scale 0 is the no-effect control and ±100 the full control effect; potency means the concentration at half of the fitted maximal effect. Only part of the results is shown; the hit share may differ from the screen's.

canonical_smiles | VDR inh
Cc1ccc(S(=O)(=O)N2CCCCC2)cc1NC(=O)C1CCC1 | -10.0%
Cc1ccoc1C(=O)NCCNC(=O)c1occc1C | 15.3%
Cc1ccc2nc(-c3ccc(SCC(=O)Nc4nnc(C)s4)nc3)[nH]c2c1 | 7.1%
O=C(O)C1C2C=CC(C2)C1C(=O)Nc1ccc(C(=O)N2CCCCC2)cc1 (stereo not given) | -2.6%
CC1(C)CC(Cc2nc(=S)[nH][nH]2)C(=O)O1 (stereo not given) | 1.6%
N#Cc1c(/N=C/c2ccco2)oc(-c2ccccc2)c1-c1ccccc1 | -97.9%
COCCNC(=O)C(c1ccc(C)cc1)N(C(=O)CCC(=O)Nc1ccccn1)c1ccc(C)cc1 (stereo not given) | -14.2%
Cc1ccc2c(c1)CCCN2C(=O)c1c(C)noc1C | 14.2%
Cc1ccc(NC(=O)CSc2nccn2Cc2ccc3c(c2)OCO3)c(C)c1 | 16.4%
COc1ccc(NC(=O)CSc2nc(C)cc(C)c2C(=O)Nc2cccc(C)c2)cc1 | 11.5%
O=C(NCCS(=O)(=O)N1CCN(c2ccccc2F)CC1)c1ccco1 | -21.3%
Cc1ccc(S(=O)(=O)c2nc(-c3cccs3)oc2NCCCN(C)C)cc1 | -4.2%

Structures shown so far with an NH in an aromatic ring:
canonical_smiles | VDR inh
Cc1ccc2nc(-c3ccc(SCC(=O)Nc4nnc(C)s4)nc3)[nH]c2c1 | 7.1%
CC1(C)CC(Cc2nc(=S)[nH][nH]2)C(=O)O1 (stereo not given) | 1.6%

Continued:
canonical_smiles | VDR inh
O=c1cc(CN2CCN(S(=O)(=O)c3ccc4c(c3)OCCO4)CC2)c2ccc(O)cc2o1 | 13.4%
Clc1cccc(-n2ncc3c(NCCC4=CCCCC4)ncnc32)c1 | 0.2%
COc1cc2ccccc2cc1C(=O)OCC(=O)c1c(N)n(C)c(=O)n(C)c1=O | -14.2%
Cc1[nH]c(C)c(S(=O)(=O)N2CCN(c3ccccc3F)CC2)c1C(=O)N1CCCCC1 | 1.4%
NS(=O)(=O)c1ccc(CCNC(=O)C2CCN(S(=O)(=O)c3ccccc3)CC2)cc1 | -7.1%
Cc1ccccc1C(=O)NC(NCc1ccco1)C(Cl)(Cl)Cl (stereo not given) | -11.1%
O=C(/C=C/c1ccc(Cl)cc1)NC(=S)Nc1ccc(N2CCOCC2)c(Cl)c1 | -6.6%
O=C(Cc1cccs1)N[C@@H]1c2ccccc2CC[C@H]1OCc1ccccc1 | 4.9%
COCCCNC(=O)C1CCN(C(=O)c2oc3cc4sc(N(C)C)nc4cc3c2C)CC1 | -4.0%
O=C(COC(=O)c1c(F)cccc1Cl)NCC1CCCCC1 | -16.7%
Cc1ccc(Cl)c(NC(=O)COC(=O)c2nn(-c3ccccc3)cc2O)c1Cl | -2.5%
O=c1c(CCc2ccccc2)nc2cncnc2n1-c1ccccc1 | -13.8%
O=C(O)/C=C\c1ccc(Cn2ccnc2)cc1 | 1.6%
COc1ccc(N2CC(C(=O)Nc3nnc(C4CCCCC4)s3)CC2=O)cc1 (stereo not given) | ?
CC(=O)c1ccc(NC(=O)N2CCc3ccccc3C2)cc1 | -5.0%
COc1ccc(-n2c3c(cc(-c4nc(-c5ccc(Cl)cc5)cs4)c2=O)C(=O)CC(C)(C)C3)cc1Cl | -27.2%
CC(=O)CN1C(=O)NC(c2ccccc2)(c2ccccc2)C1=O | -14.7%
O=C(Nc1ccc(F)c(Cl)c1)c1cncs1 | ?
CC(C)Cc1nc(SCC(=O)N2CCOCC2)c2c(=O)n(C)c(=O)n(C)c2n1 | 0.2%
C#CCSc1nc(-c2cccs2)ccc1C#N | -0.2%
Cn1c(=O)c2c(nc(NC3CCCC3)n2C)n(C)c1=O | -5.5%
CC(=O)N1c2ccc(S(=O)(=O)N3CCCCCC3)cc2CC1C(=O)NCc1ccc(Cl)cc1 (stereo not given) | 5.2%
COc1cccc2c1OCC(C(=O)O)C2 (stereo not given) | 0.4%
COc1ccc(S(=O)(=O)N2CC(O)CC2C(=O)OCC(=O)Nc2ccc(Cl)cn2)cc1 (stereo not given) | 2.9%
CC1=C(c2ccc(C(C)C)cc2)S(=O)(=O)N=C1N1CCN(C(=O)c2ccco2)CC1 | ?
CCC(C)(C)n1nnnc1C(c1ccc(C)cc1)N1CCCC1 (stereo not given) | -6.0%
Cc1ccc(Cn2cccc(NC(=O)NC3CCCCC3)c2=O)cc1 | -23.3%
COc1cc(NC(=O)C(C)Oc2ccccc2)ccc1NC(=O)COc1ccccc1 (stereo not given) | 3.7%
Cc1csc(NC(=O)c2cc3ccccc3o2)n1 | 9.9%
COc1cc(C2C(C#N)=C(C)NC3=C2C(=O)CC(C)(C)C3)cc(OC)c1O (stereo not given) | 6.0%
CCN(CC)CCCNC(=O)c1sc2ncn(CC(=O)Nc3ccc(C)c(Cl)c3)c(=O)c2c1C | 4.4%
CCCCC(=O)NC(=S)Nc1ccccc1C(=O)Nc1ccccc1 | -2.6%
COc1ccccc1NC(=O)/C(C#N)=C/c1cc([N+](=O)[O-])ccc1N1CCCC1 | -15.1%
CC(=O)Nc1cccc(N2C(=O)CC(Cc3ccccc3)C2=O)c1 (stereo not given) | 7.7%
O=C(Nc1ccc2c(c1)OCCO2)NC1CCCCC1 | 18.2%
Cc1c(C)c2ccc(OC(C)C(=O)NC3CC(C)(C)NC(C)(C)C3)cc2oc1=O (stereo not given) | 2.4%

Next section (3 carried over from the part before).
canonical_smiles | VDR inh
CC(=O)Nc1cccc(N2C(=O)CC(Cc3ccccc3)C2=O)c1 (stereo not given) | 7.7%
O=C(Nc1ccc2c(c1)OCCO2)NC1CCCCC1 | 18.2%
Cc1c(C)c2ccc(OC(C)C(=O)NC3CC(C)(C)NC(C)(C)C3)cc2oc1=O (stereo not given) | 2.4%
CS(=O)(=O)c1ccc(Cn2c3c(c4cc(F)cc(F)c42)CCC[C@H]3CC(=O)O)cc1 | 25.1µM*
Cc1ccc(CSc2nc3sc(C)c(C)c3c(=O)n2Cc2ccco2)cc1 | -7.6%
CC(=O)Nc1ccc(C)c(NC(=S)Nc2ccc(F)cc2)c1 | -4.1%
CCOCCCNC(=O)c1cn(CC(C)C)c(=O)c2c1c1ccccc1n2C | 10.2%&3.8%
CN1CC(=O)N(CCOc2ccccc2)C1=O | 9.0%
CN1C[C@@H]2[C@@H]3C(=O)N(Cc4ccccc4)C(=O)[C@@H]3[C@](C)(C1=O)N2C(=O)c1ccc(Br)cc1 | -2.2%
Cc1ccccc1N1CC(c2nnc(NC(=O)c3ccco3)s2)CC1=O (stereo not given) | -2.0%
CCSc1nnc(NC(=O)Cn2cnc3c2c(=O)n(C)c(=O)n3C)s1 | -6.3%
O=C(CSc1ccccc1)NCc1ccccc1 | 0.3%
Cc1cnc(C(=O)N2CCc3c([nH]c4ccccc34)C2c2ccc(F)cc2)cn1 (stereo not given) | 0.3%
CCC(C(=O)NCC1CCCO1)n1nc(C)c2sc3ccccc3c2c1=O (stereo not given) | -0.1%
CCOc1ccc(CN(C)C(=O)CCl)cc1 | -3.1%
COc1cccc(OC)c1C(=O)Nc1cccnc1 | 4.1%
O=C1CSC(c2cccc(O)c2)N1Cc1ccccc1 (stereo not given) | -3.3%
O=C(NCCNS(=O)(=O)c1ccccc1)c1cc(OCC(F)(F)F)ccc1OCC(F)(F)F | 3.5%
CCS(=O)(=O)N1CCN(c2ccnc3cc(Cl)ccc23)CC1 | -0.7%
COc1ccc(/C=C2\SC(=S)N(CCC(=O)NCCc3ccc(O)cc3)C2=O)cc1 | 9.7%
CC(=O)Cc1nsc(Nc2ccccc2)n1 | -15.2%
COc1ccc(CCNC(=O)COc2ccc(N(C)S(=O)(=O)c3ccc(C)cc3)cc2)cc1 | 6.0%
COc1ccc(NC(=O)CNC(=O)c2ccc([N+](=O)[O-])cc2)cc1 | -5.2%
CCOC(=O)C1=C(COC(=O)c2ccc(Br)c(S(=O)(=O)N3CCOCC3)c2)NC(=O)NC1C (stereo not given) | -9.3%
Cc1cc(C(=O)NCc2ccc(F)cc2)n(-c2ccccc2)n1 | -7.0%
COc1ccc(OCC(O)CNC2CCCC2)cc1 (stereo not given) | -4.3%
CC1CCC(N(C(=O)c2csnn2)C(C(=O)NC(C)(C)C)c2cccnc2)CC1 (stereo not given) | 11.7%
CCOc1ccccc1-c1nc(C(N)=O)c2[nH]c(=O)n(-c3ccccc3)c2n1 | 20.5%
Cc1cc(C(=O)N/N=C/c2ccc(N(C)C)cc2)c2ccccc2n1 | -3.5%
COc1ccccc1NC(=O)CSC1=Nc2ccccc2C2=NC(CC(=O)NCc3ccco3)C(=O)N12 (stereo not given) | 7.7%
COCCNC(=O)C(OC(=O)c1ccco1)c1ccccc1OC (stereo not given) | 3.5%
O=C(Nc1nnc(SCCN2CCOCC2)s1)C1CC(=O)N(c2ccccc2)C1 (stereo not given) | -16.2%
CC(C)Cc1ccc(/C(=N/O)C(=O)O)s1 | -10.5%
COc1ccc(CNC(=O)CCCn2nc(C)c3c(C)n(-c4ccc(C)cc4)nc3c2=O)cc1 | -9.9%
O=C(O)C=Cc1ccc(Cn2ccnc2)cc1 | -0.3%
CCc1nnc(NC(=O)c2ccc(S(=O)(=O)N3CCCCCC3)cc2)s1 | -1.5%
COc1cc(-c2nnc(SCc3cc(=O)oc4cc(O)c(O)cc34)o2)cc(OC)c1OC | 11.1%
Cc1cc(C)cc(NC(=O)NCCn2nnc3cc(S(=O)(=O)N(C)C)ccc32)c1 | 25.0%
O=C(CN1CCN(C2CCS(=O)(=O)C2)CC1)N1N=C(c2ccc(Cl)cc2)CC1c1ccco1 (stereo not given) | -21.9%

A different layout for some results above.
> COCCNC(=O)C(OC(=O)c1ccco1)c1ccccc1OC (stereo not given)
  VDR inh: 3.5%
> O=C(CN1CCN(C2CCS(=O)(=O)C2)CC1)N1N=C(c2ccc(Cl)cc2)CC1c1ccco1 (stereo not given)
  VDR inh: -21.9%
> O=C(O)C=Cc1ccc(Cn2ccnc2)cc1
  VDR inh: -0.3%
> COc1ccc(CNC(=O)CCCn2nc(C)c3c(C)n(-c4ccc(C)cc4)nc3c2=O)cc1
  VDR inh: -9.9%

Next part.
canonical_smiles | VDR inh
COc1ccc(NC(=O)CCN2C(=O)c3ccccc3S2(=O)=O)cc1 | 0.0%
COc1ccccc1OCCOCCn1cnc2ccccc2c1=O | 1.2%
C=CCNC(=O)CSc1nc2sc(C)c(C)c2c(=O)[nH]1 | -16.3%
Cc1ccc2c(c1)c(N=O)c(O)n2Cc1ccc(Cl)cc1 | 5.8%
CC1Cc2ccccc2N1C(=O)Cn1c(=O)cc(O)c2ccccc21 (stereo not given) | 7.0%
COC(=O)c1ccc(C2C(C#N)=C(C)NC3=C2C(=O)CC(C)(C)C3)cc1 (stereo not given) | -24.1%
CC(Sc1nnc(-c2ccc(OC(F)F)cc2)n1N)C(=O)NCC1CCCO1 (stereo not given) | -4.0%
Cc1ccc(S(=O)(=O)N2CCOC2CNC(=O)C(=O)NCc2ccncc2)cc1 (stereo not given) | -15.4%
COC(=O)c1nn(-c2ccccc2)c(Cl)c1/C=N/OCc1ccc(Cl)cc1Cl | 5.8%
NC[C@@H]1O[C@H](O[C@@H]2[C@H](O[C@@H]3O[C@H](CO)[C@@H](COC[C@H]4O[C@@H](CN)[C@@H](O)[C@@H](O)[C@@H]4N)[C@@H]3O)[C@@H](O)[C@@H](N)C[C@H]2N)[C@@H](N)[C@H](O)[C@@H]1O | 0.9%
COc1ccc(C2C(C(=O)O)CCC(=O)N2c2ccc(OC)cc2)cc1 (stereo not given) | 10.3%
COc1ccc2oc(=O)c(NC(=O)C3CCCCC3)cc2c1 | 3.1%
CC(C)CN1Cc2ccccc2Oc2cc(Br)ccc2S1(=O)=O | -19.2%
CCOC(=O)N1CCN(CC(O)COc2ccc(OC)cc2C(C)(C)C)CC1 (stereo not given) | -10.2%
COc1cc(C2NC(=O)NC(c3ccccc3)=C2C(C)=O)cc([N+](=O)[O-])c1O (stereo not given) | -20.9%
Cc1ccc2c(c1)cc1c(=O)n(CC(=O)NCCCc3ccccc3)nc(C)n12 | 15.5%
CCN(C[C@H]1N[C@@](C)(C(=O)OC)[C@H]2C(=O)N(C)C(=O)[C@@H]12)C(=O)c1ccccc1 | 4.0%
COc1ccc(C(=O)NCCOc2ccccc2)cc1S(=O)(=O)N1CCOCC1 | -9.3%
NC(=O)C1CCCN(CC(=O)N2CCN(c3ccccc3)CC2)C1 (stereo not given) | 3.9%
O=[N+]([O-])c1ccc(S(=O)(=O)NCCc2ccncc2)cc1 | 19.5%
Cc1ccc(-c2nn(CC(=O)NN3CCOCC3)c(=O)c3ccccc23)cc1 | 3.8%
Cc1c(C(=O)Nn2cnnc2)oc2ccccc12 | 10.3%
CC(=O)Nc1ccc(S(=O)(=O)Nc2c(C)nn(-c3ccccc3)c2C)cc1 | 4.9%
Cc1ccc(-c2csc(=Nc3ccccc3)n2Cc2ccc3c(c2)OCO3)cc1 | -2.4%
CCN(CC)CCNC(=O)c1ccc(-c2nc(CN3CCc4ccccc43)c(C)o2)cc1 | 17.6%
N#Cc1ccc(CN2CC[C@@]3(CCCN(C(=O)c4cc(C(F)(F)F)cc(C(F)(F)F)c4)C3)C2)cc1 | -26.8%
COc1ccc2[nH]cc(/C=C(/C#N)S(=O)(=O)c3ccccc3)c2c1 | 3.0%
CSc1ccccc1C(=O)C1CCCN(C(=O)CCN2CCCO2)C1 (stereo not given) | 18.2%
Nc1ccc(NC(=S)Nc2ccccc2)cc1 | 5.5%
CCc1ccccc1NC(=O)Nn1cnnc1 | 0.2%

High-throughput results (PubChem BioAssay)
